Screening data deposited in PubChem BioAssay by National Center for Advancing Translational Sciences (NCATS).
hNpr1 antagonist = antagonists of human natriuretic peptide receptor Npr1 | P16066 | HEK293 hNpr1 GloSensor cGMP, ANP-stimulated luminescence | Potency, µM (titrated, usually from 46.3 µM), without a hit: at the top dose activity change, negative = inhibition, most hits filed as inhibitors | hit rate 1.6% among 76,000 | AID 1347048; active = well fitted inhibition curve with a large enough effect; inconclusive = small, poorly fitted or top-dose-only effect; inactive = no such curve, though single readings can be large or run the other way;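 note: nearly all actives have a fitted effect of over 60% in size; nearly all hits also lower the signal before the agonist is added; a reference antagonist and vehicle were the controls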
Target sequence (P16066 whole entry, looked up): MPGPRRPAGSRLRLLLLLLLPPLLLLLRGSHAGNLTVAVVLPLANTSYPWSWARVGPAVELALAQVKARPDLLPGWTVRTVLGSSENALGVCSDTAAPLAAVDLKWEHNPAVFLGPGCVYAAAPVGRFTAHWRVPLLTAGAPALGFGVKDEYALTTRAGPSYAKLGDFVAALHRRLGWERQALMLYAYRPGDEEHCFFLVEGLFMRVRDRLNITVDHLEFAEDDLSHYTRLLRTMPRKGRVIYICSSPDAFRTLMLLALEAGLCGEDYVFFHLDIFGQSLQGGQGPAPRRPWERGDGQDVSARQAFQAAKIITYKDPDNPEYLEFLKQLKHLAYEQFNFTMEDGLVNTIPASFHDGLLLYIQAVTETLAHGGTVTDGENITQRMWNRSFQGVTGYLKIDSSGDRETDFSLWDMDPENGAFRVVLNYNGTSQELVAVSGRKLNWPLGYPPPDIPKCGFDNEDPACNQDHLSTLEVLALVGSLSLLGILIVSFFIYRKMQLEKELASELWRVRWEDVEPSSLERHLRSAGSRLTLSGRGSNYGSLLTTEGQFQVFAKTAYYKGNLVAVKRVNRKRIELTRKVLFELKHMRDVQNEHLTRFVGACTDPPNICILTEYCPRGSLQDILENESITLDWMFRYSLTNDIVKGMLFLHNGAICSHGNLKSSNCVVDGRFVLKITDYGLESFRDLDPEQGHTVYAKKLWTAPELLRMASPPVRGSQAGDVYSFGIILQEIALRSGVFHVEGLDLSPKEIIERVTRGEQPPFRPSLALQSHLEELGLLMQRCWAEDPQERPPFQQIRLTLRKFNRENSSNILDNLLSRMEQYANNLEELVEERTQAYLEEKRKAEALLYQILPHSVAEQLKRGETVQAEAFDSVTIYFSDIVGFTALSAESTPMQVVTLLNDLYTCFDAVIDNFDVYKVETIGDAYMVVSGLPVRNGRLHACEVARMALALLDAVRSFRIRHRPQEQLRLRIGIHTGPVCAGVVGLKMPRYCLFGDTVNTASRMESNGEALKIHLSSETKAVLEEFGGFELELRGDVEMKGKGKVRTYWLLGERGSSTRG
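HEK293 cells stably expressing human Npr1 and cGMP GloSensor pGS-40F, loaded 2 h with 2% GloSensor reagent, given compound 30 min at room temperature. Luminescence read before and 20 min after 0.1 nM hNppA.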
An asterisk follows results filed as active; u = inconclusive; [ ] = another dose, or the depositor's remark. % is set by controls: 0 for no effect and ±100 for the full control effect; potency is the fitted concentration of half-maximal effect.

hNpr1 antagonist | Compound
1.6% | Cc1ccc(F)cc1S(=O)(=O)N1CCn2c(nn(CC3CC3)c2=O)C1
-2.2% | CC(C)c1ccc(NC(=O)CN2C(=O)NC3(CCS(=O)(=O)CC3)C2=O)cc1
4.3% | O=C(c1cscn1)N1CC[C@@H]2[C@@H](CCC(=O)N2CCCn2ccnc2)C1
0.0% | O=C(COc1ccccc1)NCC(=O)N1CCCCCCNC(=O)CC1c1ccccc1 (configuration not stated)
-2.4% | O=C(Cn1cccn1)N1C[C@@H](COCC2CC2)[C@H](c2ccncc2)C1
25.1µM* | CC1(COc2cccnc2)COc2ccc(C(=O)NCc3ccc4c(c3)OCO4)cc2N1 (configuration not stated)
4.6%[70.6 µM] | CN(Cc1ccccc1C(F)(F)F)S(C)(=O)=O
4.9% | CN(C)c1ccc(CN2CCC[C@H]2c2nc(-c3ccnc(N4CCC(C(N)=O)CC4)c3)no2)cc1

hNpr1 antagonist | Compound
14.4% | CCCN1CCC2(CCN([S+](=O)([O-])c3cccc(C(F)(F)F)c3)CC2)Oc2ccccc21
5.1% | COc1ccc(NC(=O)N2CCC(Oc3ncccc3C(=O)N(C)C)C2)c(C)c1 (configuration not stated)
u | O=C(CC1CCCN(c2cnn(CC3CC3)c(=O)c2)C1)N1CCN(c2ccccc2)CC1 (configuration not stated)
-17.8% | COc1cccc(-c2cc(C3CCN(C(=O)Nc4cccc(Cl)c4C)CC3)[nH]n2)c1
3.3% | NC(=O)c1ccc(O[C@@H]2COCC[C@H]2NC(=O)Cc2ccc(O)cc2)cc1
-1.3% | C[C@H]1[C@@H]2[C@@H](O)C([C@H](C)C(=O)NCc3cccs3)CC[C@@]2(C)CC[C@@H]1NC(=O)COc1ccccc1 (some centres not stated)
0.4% | COCCc1noc(Cn2nc(-c3ccccc3)c3ccccc3c2=O)n1
-5.7% | COc1ccc(C(=O)N2CCc3ccc(C(=O)NCc4ccccn4)cc32)cc1

hNpr1 antagonist | Compound
-10.6% | COCc1cc(=O)n(CC(=O)Nc2cc(F)ccc2F)c(N2CCOCC2)n1
11.2µM* | O=C(CCCc1c[nH]c2ccccc12)N1CCC(c2noc(COc3ccc(F)cc3)n2)CC1
-5.3% | COc1cc(=O)n2c(c1C(=O)Nc1ccccc1C)CCCC2
-6.8% | CCCNC(=O)N1C[C@@H](Oc2ccccc2)C[C@@H]1C(=O)NCCOC
3.9% | CCn1ncc(N2CCC(NC(=O)c3ccc(OC(C)C)cc3)CC2)cc1=O
-5.0% | CCN(Cc1cnn(CC)c1)C(=O)C1CCCCC(=O)N1Cc1cccc(OC)c1 (configuration not stated)
-11.5% | COc1ccccc1OC1(C(=O)O)CCN(c2ncnc3[nH]ccc23)CC1
-10.0% | Cc1nn(C)c(C)c1CCC(=O)NCCc1ncc(C)n1Cc1ccc(F)cc1

hNpr1 antagonist | Compound
-8.6% | Cc1ccc(C2NC(=O)N(CC(=O)Nc3ccccc3)C3=C2C(=O)OC3)cc1 (configuration not stated)
3.9% | CC[C@@]1(C(=O)O)C[C@H](C(=O)N(C)CCN(C)C)[C@H](c2ccc(OC)cc2)N1C
2.9% | CCCC1c2nccn2CCCN1C(=O)c1occc1C (configuration not stated)
0.7% | CSCCCN1CCC2(CCN(Cc3cccc(O)c3)CC2)C(CO)C1 (configuration not stated)
-4.0% | O=C(C[C@@H]1O[C@H](CNS(=O)(=O)c2ccccc2)[C@@H](O)[C@H]1O)NCCN1CCOCC1
4.4% | Cc1cccc(OCCc2noc(C3CCN(C(=O)NC4CCCCC4)C3)n2)c1 (configuration not stated)
8.8% | O=C(CCn1cnnn1)N1CCC(N2C(=O)C3(CCCC3)C2c2ccccc2)CC1 (configuration not stated)
2.3% | Cc1cc2nc3n(c(=O)c2n1CC(=O)Nc1ccc(F)cc1F)CCC3

hNpr1 antagonist | Compound
-6.4% | NS(=O)(=O)CCCC(=O)N1C[C@@H](C(=O)O)[C@H](c2cccc(F)c2)C1
7.4% | O=C(C[C@@H]1CCNC[C@@H]1Cc1cc(CN2CCOCC2)on1)NCCN1CCOCC1
-13.6% | CN1c2cc(C(=O)Nc3ccc(F)cc3)ccc2C(=O)N2CCCCCC21 (configuration not stated)
4.0% | COCCCNC(=O)CN1CC2CC(C1)[C@H]1CCCC(=O)N1C2 (some centres not stated)
15.9%[70.6 µM] | CN(Cc1ccccc1C(F)(F)F)CC1CC1
0.5% | COCCNC(=O)[C@H]1C[C@H](Oc2ccccc2)CN1C(=O)NCc1ccc(C)cc1
-24.1% | CC(=O)c1cccc(NC(=O)O[C@@H]2CO[C@H]3[C@@H]2OC[C@@H]3Nc2nccc(C3CCCC3)n2)c1
-3.4% | O=C(CSc1ccncc1)N1CCCC(O)(CN2CCCC2)C1 (configuration not stated)

hNpr1 antagonist | Compound
3.4% | Cc1noc([C@@H]2CC(F)(F)CN2C(=O)c2ccco2)n1
-1.4% | CSc1cccc(NC(=O)Cn2cccc2-c2nc(-c3ccc4c(c3)OCO4)no2)c1
4.7% | Cc1cnc(-c2ccccc2)n1CCNS(=O)(=O)c1ccccc1
1.2% | CCN1CCN(C(=O)c2cc(-c3ccc(C)cc3)cn2CC)CC1
13.4%[70.6 µM] | CN1C(=O)C2(CCN(C(=O)c3ccccn3)C2)c2ccccc21 (configuration not stated)
5.8% | O=C(COc1ccc(F)cc1)NCC(=O)N1CCCCCNC(=O)CC1c1ccccc1 (configuration not stated)
-11.5% | COc1ccccc1CN1CCc2nc(C3CC3)nc(-c3ccc(O)cc3)c2CC1
2.1% | Cc1nccn1CCN(C)C(=O)c1coc(COc2cccc(C(F)(F)F)c2)n1

hNpr1 antagonist | Compound
-3.2% | Cc1cccc(-c2cn[nH]c2C2CCN(C(=O)c3ccc(C)[nH]c3=O)CC2)c1
-1.7%[70.6 µM] | O=C(c1ccc2c(c1)OCO2)N1CCN2C(=O)N(Cc3ccc(F)cc3)C[C@H]2C1
-4.4% | Cn1cc(CNC(=O)c2ccc(OC3CCN(S(C)(=O)=O)CC3)c(Cl)c2)cn1
-0.7% | Cc1cnc(C2CCN(S(C)(=O)=O)C2)n1C(C)C (configuration not stated)
0.0% | O=C(COc1ccc(F)cc1)N1CCC2(CC1)CC(OCC1CC1)CCO2 (configuration not stated)
2.8% | CS(=O)(=O)N1CCc2n[nH]c(=O)n2CC1
0.6% | CS(=O)(=O)N1C[C@H]2CCN(Cc3cc(F)ccc3F)C[C@H]21
-2.1% | Cc1ccsc1CN1CCc2n[nH]c(=O)n2CC1

hNpr1 antagonist | Compound
4.7% | COCC1CN(C(C)=O)CC12CCN(S(=O)(=O)c1ccccc1)CC2 (configuration not stated)
2.6%[70.6 µM] | CC(C)NC(=O)c1cnc2c(c1)N(C(=O)Cc1cn(C)c3ccccc13)CCC2
-0.3% | COCc1ncc2c(n1)CCCN(CC(=O)NCc1ccccc1OC)C2=O
0.1% | COc1ccc(NC(=O)C2CN(S(C)(=O)=O)CC23CCCCC3)c(OC)c1 (configuration not stated)
2.6% | Cc1ccc(CN(C)C(=O)C2CCCN(C3CCN(Cc4cccnc4)CC3)C2)o1 (configuration not stated)
-1.0% | Cc1cc2c(c(=O)n(-c3ccc(F)cc3)c(=O)n2CC(=O)Nc2ccc(F)cc2)n1C
3.8% | O=C(c1ccc(Cn2cncn2)o1)N1CCCCCC1c1nnc(-c2ccccc2)o1 (configuration not stated)
0.9% | O=C(Cc1cccnc1)N1CC(F)(F)C[C@H]1c1nc(C2CC2)no1

hNpr1 antagonist | Compound
15.5% | Cc1cn2nc(C(=O)N3CCC(NC(=O)c4ccccc4C)CC3)cc2c(=O)[nH]1
1.6% | Cn1c(CN2CCC3(CCNCC3)C2)cc2ccccc21
-10.6% | CN1C(=O)C(CC(=O)NC2CCCCC2)=C2CCCCC21 (configuration not stated)
3.0% | CN1CCc2[nH]cnc2C12CCN(C(=O)c1cccc(-n3cccn3)c1)CC2
11.2µM* | CC1(C)[C@H](Cc2cc(-c3ccc(F)cc3)on2)C[C@@H]1NCc1cccnc1
-0.5%[70.6 µM] | O=C(c1nc(-c2ccc(Cl)cc2)c2ccccn12)N1CCCC1
u | CC(C)S(=O)(=O)N1CCC(F)(c2nc(-c3ccccc3)no2)CC1
6.3% | COCc1ncc(C)n1CCNC(=O)c1n[nH]c(=O)c2ccccc12

hNpr1 antagonist | Compound
15.3% | Cc1ccc(NC(=O)Cn2ccn3nc4c(c3c2=O)CCCCC4)cc1F
-1.6% | CCOc1ccccc1C(=O)Nc1cccc(-c2nnc3n2CCCC3)c1
-2.6% | Cc1ccc(C2Cn3cnc(C(=O)N4CCC(C(=O)NCc5ccccc5C)CC4)c3CO2)cc1 (configuration not stated)
1.7% | CC(=O)Nc1ccc(CN2C(=O)OC3(CCN(C(=O)COc4ccccc4)CC3)C2(C)c2ccccc2)cc1 (configuration not stated)
3.5% | Cc1ccc(NC(=O)NCC2CCOCC2)cc1
7.6% | CCN1C(=O)CCN(C(=O)NCc2ccc(C)cc2)CC12CCOCC2
2.6% | COC(=O)[C@@H]1Cc2ncn(C(C)C)c2CN1S(=O)(=O)c1cccc2c(N(C)C)cccc12
0.0% | CCCN1CCN(C(=O)c2ccnc(C(C)C)n2)[C@H]2CS(=O)(=O)C[C@H]21

hNpr1 antagonist | Compound
-11.6% | CCNc1ncnc2sc3c(c12)CCN(C(=O)NCCOC)C3
u | Cc1ccc(-c2noc([C@@H]3C[C@H](NS(=O)(=O)c4ccc(C)cc4)CN3C)n2)cc1
u | c1ccc(OCCNc2nc(-c3cccnc3)nc3c2CCNCC3)cc1
1.2% | CC(=O)N1C[C@@H]2CCCN3CCC[C@@H]([C@H]23)[C@H]1CCCC(=O)N1CCN(c2ccc(F)cc2)CC1
0.2% | CCc1nc(C)sc1C(=O)N1CCN(C)C2(CCNC(=O)CC2)C1 (configuration not stated)
3.4% | Oc1ccc(-c2nc(C3CC3)nc3c2CCN(Cc2ccccc2)CC3)cc1
1.1% | Cc1nn(C)cc1CN(C)Cc1cn(C)nc1-c1ccc(C2CCCCC2)cc1
-26.7%[70.6 µM] | COc1ccc(Nc2ncc(-c3ccccc3OC)c3c2OCC3)cc1

hNpr1 antagonist | Compound
-0.7% | Cc1ncsc1CN1CCc2nc(N3CCN(C)CC3)[nH]c(=O)c2CC1
-8.2% | COC1C(=O)N(C2CCN(Cc3ccc(F)c(F)c3)CC2)C12CCOCC2 (configuration not stated)
6.2% | COCc1cc(NCCCNc2cccnc2)ncn1
6.3% | CCOc1ccccc1NC(=O)N1CC[C@@H]2C(=O)NCCCCCCN(Cc3ccncc3)[C@@H]2C1
-10.0% | N#Cc1ccc(C(=O)N2CCCC2c2nc(CCOCC3CC3)no2)cc1 (configuration not stated)
-1.6% | O=C(C1CC1)N1CCC(c2noc(-c3ccncc3)n2)C1 (configuration not stated)
-0.3% | COCCOCC(=O)N1CCC(N2C(=O)C3(CCCCC3)C2c2ccccc2)CC1 (configuration not stated)
-2.1%[70.6 µM] | Fc1ccc(-c2ccc3ncc(Nc4ccncc4)n3n2)cc1

hNpr1 antagonist | Compound
2.82µM* | CC(C)N1C(=O)CO[C@H]2CCN(Cc3ccccc3Cl)CC[C@@H]21
-13.6% | Cc1nc2cccnc2n1CC1CCCN(C(=O)Nc2ccc(C(F)(F)F)cc2)C1 (configuration not stated)
u | CCCNC(=O)c1cccc2c1CCN2S(=O)(=O)c1ccc(C)cc1
-1.3%[70.6 µM] | O=C(Nc1cccnc1)c1cnc2n1CCN(Cc1ccccc1)CC2
3.2%[70.6 µM] | COCC(=O)N1C[C@@H]2C[C@H]1C(=O)N(Cc1ccc(OC)cc1)c1ccccc1O2
5.3%[70.6 µM] | COCCOc1ccc(C(=O)N[C@@H]2CNCCC[C@H]2O)cc1
-3.4% | CCN(CCn1cccn1)C(=O)c1ccc(OC2CCN(C(=O)C3CC3)CC2)cc1
0.1% | COc1cccc(CC(=O)NC(C)C(=O)N2CCN(c3ccccn3)CC2)c1 (configuration not stated)

hNpr1 antagonist | Compound
-13.6% | CCNC(=O)N1CC(C(=O)N(C)C)C2(CCOCC2)C1 (configuration not stated)
-5.7% | Cc1cn2nc(C(=O)Nc3ccc(C(=O)NCCc4cccs4)cc3)cc2c(=O)[nH]1
3.2% | CCN1C(=O)C2CC3(CCN(C(=O)Cn4c(=O)oc5ccccc54)CC3)CN2C1=O (configuration not stated)
1.7%[70.6 µM] | O=c1[nH]c2cccnc2n1Cc1ccccc1

Grouped by structure, the compounds so far with an aryl methoxy group.
hNpr1 antagonist | Compound
5.1% | COc1ccc(NC(=O)N2CCC(Oc3ncccc3C(=O)N(C)C)C2)c(C)c1 (configuration not stated)
-17.8% | COc1cccc(-c2cc(C3CCN(C(=O)Nc4cccc(Cl)c4C)CC3)[nH]n2)c1
-5.7% | COc1ccc(C(=O)N2CCc3ccc(C(=O)NCc4ccccn4)cc32)cc1
-5.3% | COc1cc(=O)n2c(c1C(=O)Nc1ccccc1C)CCCC2
-5.0% | CCN(Cc1cnn(CC)c1)C(=O)C1CCCCC(=O)N1Cc1cccc(OC)c1 (configuration not stated)
-11.5% | COc1ccccc1OC1(C(=O)O)CCN(c2ncnc3[nH]ccc23)CC1
3.9% | CC[C@@]1(C(=O)O)C[C@H](C(=O)N(C)CCN(C)C)[C@H](c2ccc(OC)cc2)N1C
-11.5% | COc1ccccc1CN1CCc2nc(C3CC3)nc(-c3ccc(O)cc3)c2CC1
-0.3% | COCc1ncc2c(n1)CCCN(CC(=O)NCc1ccccc1OC)C2=O
0.1% | COc1ccc(NC(=O)C2CN(S(C)(=O)=O)CC23CCCCC3)c(OC)c1 (configuration not stated)
-26.7%[70.6 µM] | COc1ccc(Nc2ncc(-c3ccccc3OC)c3c2OCC3)cc1
3.2%[70.6 µM] | COCC(=O)N1C[C@@H]2C[C@H]1C(=O)N(Cc1ccc(OC)cc1)c1ccccc1O2
0.1% | COc1cccc(CC(=O)NC(C)C(=O)N2CCN(c3ccccn3)CC2)c1 (configuration not stated)

An excerpt (hit frequency here may not be typical).
